Sa growth inh: S. aureus growth inhibition at 42 and 30 °C, primary screen, LtaS inhibitor project, RN4220, two temperatures | 170,000 compounds, 0.53% hits | OD600, 20 h, 42 °C; stronger effect = lower value | relative growth, % (no concentration beside the values);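 active means growth at 42 °C up to 50% and 20 or more points under that at 30 °C, or under 10% at both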;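 further: 300 nL library stock went into each well; scaled to the means of positive and negative controls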
HCMV UL50-53 inh: inhibitors of HCMV UL50-UL53 interaction, biochemical, HTRF. 190,000 compounds, 0.15% hits. inhibition, % (concentration not given with the values). AID 1918969, 2023. HCMV UL50-UL53 nuclear egress complex (human cytomegalovirus). normalized percent inhibition;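 active means both replicates at 50% or more, plus weaker picks with an unusually low signal ratio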;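 further: stock transfer was 100 nL into about 20 µL; 0% = negative control wells and 100% = wells with untagged competitor protein; inactives centre near -12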
GIV-Gai inh: inhibitors of GIV peptide binding to Galpha-i3, primary screen, biochemical, fluorescence polarization, FITC-GIV GBA peptide, rat Galphai3 | Guanine nucleotide-binding protein G(i) subunit alpha-3 (Rattus norvegicus), P08753 | 90 min; stronger effect = lower value; scaled: aluminum fluoride 0%, vehicle 100% | percent of control (FP), % (no concentration beside the values) | 210,000 compounds, 0.42% hits;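 active means replicate mean at 85% of control or lower, very high polarization wells dropped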;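 further: wells of about 15 µL received 100 nL stock; the first replicate is given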
Target sequence (P08753 whole entry, looked up): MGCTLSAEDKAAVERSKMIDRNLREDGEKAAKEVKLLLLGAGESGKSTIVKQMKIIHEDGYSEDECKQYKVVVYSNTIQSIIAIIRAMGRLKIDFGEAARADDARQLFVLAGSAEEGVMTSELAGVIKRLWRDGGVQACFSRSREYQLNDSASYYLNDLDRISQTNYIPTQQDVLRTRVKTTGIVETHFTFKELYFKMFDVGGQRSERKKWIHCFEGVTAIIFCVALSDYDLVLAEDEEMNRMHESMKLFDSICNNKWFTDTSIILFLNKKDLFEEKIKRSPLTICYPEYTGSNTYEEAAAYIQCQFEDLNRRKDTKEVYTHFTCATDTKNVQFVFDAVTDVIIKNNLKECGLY
Sa growth inh second temp: recorded beside Sa growth inh, whose call it bears; relative growth, %; measured here: growth at 30 °C;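 optical density after 20 h as mean of two plates; 100% = untreated growth and lower means inhibition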
Starred values were filed as active, the others as inactive; / = no result given; & = joins results of further samples.

Start of the data: the first two entries, ahead of the listing:
SMILES	Sa growth inh	Sa growth inh second temp	HCMV UL50-53 inh	GIV-Gai inh
CCOc1ccc(N2C(=O)/C(=C/c3cccs3)C(=O)N(c3ccccc3)C2=S)cc1	104	81	/	97
O=c1cc(CSc2nnc(-c3ccco3)n2Cc2ccccc2)nc2sccn12	89	84	-13	/

All compounds of this part, from the first entry:
SMILES	Sa growth inh	Sa growth inh second temp	HCMV UL50-53 inh	GIV-Gai inh
CCOc1ccc(N2C(=O)/C(=C/c3cccs3)C(=O)N(c3ccccc3)C2=S)cc1	104	81	/	97
O=c1cc(CSc2nnc(-c3ccco3)n2Cc2ccccc2)nc2sccn12	89	84	-13	/
O=C(O)c1cccnc1Sc1ccc2c(c1)OCCO2	78	85	-27	/
COC(=O)c1ccc(NC(=O)Cn2cncn2)cc1	100	88	-2	98
N#Cc1c(N)nc2c(c1N)CC(=O)N2C1CCS(=O)(=O)C1 (stereo not drawn)	71	93	-76	/
CCC1CCCCN1C(=O)CSc1nc2c([nH]c3ccccc32)c(=O)n1-c1ccc(OC)cc1 (stereo not drawn)	99	83	/	103
CCOCCn1ccc2c(OCC(=O)Nc3ccc4c(c3)OCCO4)cccc2c1=O	84	91	-42	108
Cc1ccc(C(C)C)c(OC(=O)NC2(C(F)(F)F)Oc3ccc(Cl)cc3O2)c1 (stereo not drawn)	91	92	-14	/
CCC(Sc1ncccn1)C(=O)Nc1cc(C)on1 (stereo not drawn)	81	74	-42	/
CC(Sc1ccc(F)cc1)C(=O)NC(N)=O (stereo not drawn)	86	89	-24	/
O=c1[nH]c(CSCc2ccco2)nc2ccccc12	95	79	-27	103
CCOc1cc(/C=C2\SC(NC(C)=O)=NC2=O)ccc1OCc1ccccc1	/	/	-10	125
N#Cc1ccccc1NC(=O)CCS(=O)(=O)c1ccccc1	97	81	-29	97
O=c1[nH]c(SCc2nc(-c3ccccc3)no2)nc2c(-c3ccccc3)c[nH]c12	/	/	-9	100
COC(=O)c1c(C)oc2cc(Br)c(OC(=O)c3ccc([N+](=O)[O-])cc3)cc12	/	/	-18	97
O=C(NC1CCCC1)N1CCCC1c1ccc(Cl)cc1 (stereo not drawn)	/	/	-34	99
O=C(OCC(=O)N1CCC(c2ccccc2)=N1)c1ccc(Br)o1	91	86	-23	/
Cn1c(C(=O)NCc2ccccc2)cc(=O)n(C)c1=O	98	76	-19	106
O=C(CCC(=O)c1cccs1)c1cccs1	107	109	-2	99
CCc1ccc(NC(=O)Cn2ccn(-c3cccc(Cl)c3)c(=O)c2=O)cc1	97	89	-19	97
CCOC(=O)c1nc(Nc2cccc(NC(C)=O)c2)c2ccccc2n1	/	/	-26	103
CC(=O)Oc1c(C)c(C)c2c(c1C)CCC(C)(CCCC(C)CCCC(C)CCCC(C)C)O2 (stereo not drawn)	94	85	-17	/
CCN(CC)C(=O)c1ccccc1Sc1ccccc1C#N	108	98	-2	102
COc1cccc(CNC(=O)CCS(=O)(=O)Cc2ccc(C)cc2)c1	100	80	/	109
Cc1ccc(C)c(N(C)C(=O)c2cn(C)c(=O)c3ccccc23)c1	76	88	7	105

(list continues)
SMILES	Sa growth inh	Sa growth inh second temp	HCMV UL50-53 inh	GIV-Gai inh
COc1ccccc1-n1cnc2cc(C(=O)N3CCOCC3)ccc21	96	94	1	/
O=C(O)CCNc1ccc(Br)cc1C(=O)O	114	96	4	/
Cc1ccc(C=C2C(=O)N(C)C(=O)N(C)C2=O)cc1	96	109	-1	105
c1ccc(C2CC(c3cccs3)=Nc3nc4ccccc4n32)cc1 (stereo not drawn)	43	1	-9	/
COc1ccc(N2CCN(C(=O)c3ccccc3NC(=O)c3ccccc3)CC2)cc1	102	96	-30	96
O=C(O)CN1C(=O)COc2cc(Cl)ccc21	/	/	-22	99
CCC(=O)NC(CC)Cc1ccccc1 (stereo not drawn)	90	86	-1	/
CCOc1ccc(C2c3c(oc4ccc(F)cc4c3=O)C(=O)N2CCOC)cc1 (stereo not drawn)	103	100	-1	105
Cc1ccc(S(=O)(=O)NC(=O)Oc2ccc(-c3csnn3)cc2)cc1	111	90	-21	103
O=C(Cc1ccccc1)NCc1ccccn1	113	98	7	106
CCOC(=O)C1CCN(C(=O)c2cc(-c3ccncc3)n[nH]2)CC1	/	/	-2	103
CCOC(=O)c1c(-c2cc(OC)ccc2OC)c2oc3ccccc3c2[nH]c1=O	100	93	3	101
CCCCOc1ccc(OCCCC)c2c1NC1(N2)C(=O)N(C(C)=O)c2ccccc21	/	/	-4	111
Cc1ccc(C2C3=C(CC(c4ccco4)CC3=O)Nc3ncnn32)cc1 (stereo not drawn)	106	89	-13	97
COc1ccc(Cl)cc1NC(=O)COC(=O)c1cc(F)c(F)cc1Cl	97	81	-33	/
O=C(COCc1cc(-c2ccc3c(c2)OCO3)on1)Nc1ccc(OC(F)(F)F)cc1	94	95	17	103
Cc1nn(CC(=O)NC2CCC(C)CC2)c(=O)c2c1sc1ccccc12 (stereo not drawn)	103	86	-3	98
COc1cccc(O)c1C(=O)NCC(=O)O	106	96	10	109
COC(=O)c1cc(-c2ccc(Br)cc2)on1	100	85	-34	104
O=C(Nc1sccc1-n1cccc1)NC1Cc2ccccc2C1	88	80	-35	107
Cn1c(=N)n(CCCOc2ccc(Br)cc2)c2ccccc21	79	30	1	110
CSc1ncc(C(=O)N2CCOCC2)cn1	117	99	-12	110
CN(C)CCNC(=O)C1CCCNC1=O (stereo not drawn)	91	82	-14	103
Cc1nc(N)c(C(=O)O)nc1C	108	96	/	100
Cc1cccc(C(C)C)c1NC(=O)c1ccc2c(c1)CCCN2S(C)(=O)=O	108	90	6	103

Reformatted: results already given
structure: CCC(=O)NC(CC)Cc1ccccc1 (stereo not drawn)
- Sa growth inh: 90
- Sa growth inh second temp: 86
- HCMV UL50-53 inh: -1
- GIV-Gai inh: /

structure: CCOC(=O)c1c(-c2cc(OC)ccc2OC)c2oc3ccccc3c2[nH]c1=O
- Sa growth inh: 100
- Sa growth inh second temp: 93
- HCMV UL50-53 inh: 3
- GIV-Gai inh: 101

structure: COC(=O)c1c(C)oc2cc(Br)c(OC(=O)c3ccc([N+](=O)[O-])cc3)cc12
- Sa growth inh: /
- Sa growth inh second temp: /
- HCMV UL50-53 inh: -18
- GIV-Gai inh: 97

structure: O=c1cc(CSc2nnc(-c3ccco3)n2Cc2ccccc2)nc2sccn12
- Sa growth inh: 89
- Sa growth inh second temp: 84
- HCMV UL50-53 inh: -13
- GIV-Gai inh: /

The results go on:
SMILES	Sa growth inh	Sa growth inh second temp	HCMV UL50-53 inh	GIV-Gai inh
c1ccc(CNc2nc(-c3ccccc3)ns2)cc1	110	103	0	99
CC1=CC(C)C(C(=O)O)C(C(=O)Nc2ccccc2)C1 (stereo not drawn)	126	87	/	102
COc1ccc(CCNC(=O)c2ccc3c(c2)nc2n3CCOC2)cc1OC	95	88	/	101
O=C(COC(=O)C1CC1)c1ccc(Cl)s1	98	91	-43	/
Cc1nc(C)c(C(=O)NCc2ccccc2Cl)o1	87	101	-6	106
Brc1ccc(NC2=Nc3ccccc3CC2)cc1	96	94	6	/
CSc1c(C#N)c(-c2cccs2)nn1CC(=O)N/N=C/c1cccs1	96	86	-23	104
O=C(CC1=NS(=O)(=O)c2ccccc2N1)N1CCN(c2cccc(Cl)c2)CC1	/	/	-3	104
Cc1ccc(C)c(Nc2n[nH]c(=S)s2)c1	45	30	-9	105
Nc1cc(=O)[nH]c(=O)n1CC12CC3CC(CC(C3)C1)C2	85	81	-17	/
O=C(Cn1c2ncccc2c(=O)n1-c1ccccc1)NCc1ccccc1	102	86	23	103&108
CCOc1ccc(NC(=O)c2c(NC(=O)c3ccncc3)sc3c2CCC(C(C)(C)C)C3)cc1 (stereo not drawn)	99	98	2	104
Cn1nc(-c2ccc(S(=O)(=O)NCc3ccco3)s2)cc1C(F)(F)F	106	100	-8	111
O=C(NCCCc1ccccc1)C1CCCN(c2nc3ccccc3n3cccc23)C1 (stereo not drawn)	/	/	4	103
CC(C)NC(=S)N1CCCN2C(=O)c3ccccc3C21 (stereo not drawn)	98	91	-19	100
CC1(c2ccc(Cl)cc2)NC(=O)CS1 (stereo not drawn)	99	80	-3	101
Cc1cc(NCc2cccnc2)c2ccc(Cl)cc2n1	112	81	0	/
CCOC(=O)C1=C(N)OC(c2cccc(OC)c2)=C(C#N)C1c1ccccc1 (stereo not drawn)	100	83	-8	/
COC(=O)c1sccc1Br	107	84	2	96
Cc1cc(C)cc(NS(=O)(=O)c2coc(C(N)=O)c2)c1	97	87	-9	104
COC(=O)c1ccccc1NC(=O)CSc1nc2ccsc2c(=O)n1-c1ccc(F)cc1	97	82	0	101
Nc1nc(SCC(=O)N(C2CCCCC2)C2CCS(=O)(=O)C2)nc2sc3c(c12)CCCC3 (stereo not drawn)	99	86	1	/
Cc1ccc(-c2noc(CCC(=O)Nc3cccc(CCc4nc5ccc(C)cc5[nH]4)c3)n2)cc1	/	/	-24	105
CCOc1ccc2nc(Cl)c(C3CC(c4ccccc4)=NN3C(=O)CCC(=O)O)cc2c1 (stereo not drawn)	96	88	-14	103
O=C(Nc1ncc(Cc2ccccc2Cl)s1)c1ccc2c(c1)CC(c1ccccc1)OC2=O (stereo not drawn)	94	86	-36	100

Other entries follow.
SMILES	Sa growth inh	Sa growth inh second temp	HCMV UL50-53 inh	GIV-Gai inh
CCOC(=O)c1c(C)[nH]c(C)c1S(=O)(=O)N1CCCC(C(=O)Nc2ccc(F)cc2F)C1 (stereo not drawn)	85	89	/	105
CC1CCN(C(=O)c2cc3n(n2)CC(C)(C(=O)NC2CCCCC2)N(C)C3=O)CC1 (stereo not drawn)	/	/	-12	103
C=Cc1ccc(Cn2c(SCC(=O)N3CCN(c4ccc(F)cc4)CC3)nc3ccccc32)cc1	97	89	-33	100
O=c1c(C2NCCC3(O)CCCCC23)coc2ccc(Cl)cc12 (stereo not drawn)	107	96	-10	105
S=C(NCc1ccco1)Nc1ccccc1	83	86	-4	113
COc1cccc(CNC(=O)c2cc(S(=O)(=O)N3CCCCC3)c[nH]2)c1	96	97	/	107
CCOC(=O)C1=C(C)N=c2s/c(=C\c3ccc(OC)c(Br)c3)c(=O)n2C1c1ccc2c(c1)OCO2 (stereo not drawn)	/	/	-7	102
COc1cccc(N2C(=O)C=CC2=O)c1	71	45	-36	100
COc1ccccc1C1CC(c2ccccc2)=NN1S(=O)(=O)c1ccccc1 (stereo not drawn)	/	/	-5	106
CCOc1ccc(/C=c2/sc3nnc(-c4ccccc4C)n3c2=O)cc1	92	84	/	99
COc1ccc(CCC(=O)NCc2ccc3c(c2)CCN3C(=O)c2ccc(Cl)cc2)cc1	102	92	/	103
CCN1CCN(C(=O)c2ccc3c(c2)N(Cc2ccccc2F)C(=O)c2ccccc2S3(=O)=O)CC1	83	84	-29	98
COc1ccc2[nH]c(C(=O)Nc3ccc(F)cc3Br)cc2c1	110	74	-2	103
COc1cc2c(=O)n(Cc3ccc(C(=O)NCCC(C)C)cc3)c(=O)n(CC(=O)N3CCCC3)c2cc1OC	/	/	-11	104
CC(=O)Nc1ccc2c(c1)nc(CN1CCC(C)CC1)n2C	/	/	-8	105
COC(=O)Nc1cccc(NC(=O)OC)c1F	90	89	-27	108
COCCn1c(-c2cccc(C)c2)nn(CN2CCCC(C(N)=O)C2)c1=S (stereo not drawn)	90	76	-29	/
O=C(CN1CCCCC1)N/N=C/c1ccc(/C=N/NC(=O)CN2CCCCC2)cc1	110	77	-4	102
O=C(/C=C/c1ccccc1)Nc1ccc(C(=O)O)cc1	107	87	-56	/
CN(C)C(CNS(=O)(=O)c1ccc(F)cc1)c1cccnc1 (stereo not drawn)	115	90	/	96
O=C(Nc1cccnc1)OC1CCCC1	93	89	-3	98
COc1ccc(S(=O)(=O)N2CCC(NC(=O)NCC3CCCO3)CC2)cc1 (stereo not drawn)	88	92	-11&12	99&97
CN1CCN(CC2COc3ccccc3O2)CC1 (stereo not drawn)	97	85	-4	/
CCN(C(=O)c1coc(=O)c2ccccc12)c1ccccc1C	95	105	3	109
CC(NCc1ccccc1)C1COc2ccccc2O1 (stereo not drawn)	114	91	/	98

One compound at a time (already shown). Screens in order: Sa growth inh, Sa growth inh second temp, HCMV UL50-53 inh, GIV-Gai inh
Listed for COc1cccc(N2C(=O)C=CC2=O)c1 : 71, 45, -36, 100
Listed for COc1ccccc1C1CC(c2ccccc2)=NN1S(=O)(=O)c1ccccc1 (stereo not drawn) : /, /, -5, 106
Listed for CN(C)C(CNS(=O)(=O)c1ccc(F)cc1)c1cccnc1 (stereo not drawn) : 115, 90, /, 96

(listing goes on)
SMILES	Sa growth inh	Sa growth inh second temp	HCMV UL50-53 inh	GIV-Gai inh
COc1ccc(N2CCN(Cc3nc4c(c(=O)n(C)c(=O)n4C)n3Cc3ccccc3)CC2)cc1	/	/	-33	101
O=C(CNC(=O)c1cccc(F)c1)OC1CCCCC1=O (stereo not drawn)	89	95	-18	/
CN(CC(=O)N1CCN(c2ccc(Cl)cc2)CC1)S(=O)(=O)c1c[nH]c(C(=O)N2CCCC2)c1	/	/	-12	107
Cc1ccc2c(c1)cc(CN(Cc1ccco1)C(=O)N(C)C)c1nnnn12	107	92	-4	104
CN(C)C(=O)Cn1c(=O)n(S(=O)(=O)c2ccccc2)c2ccccc21	105	97	12	105
CCc1cc2c(cc3n2CC(C)(C(=O)NC2CCCCC2)N(Cc2ccc4c(c2)OCO4)C3=O)s1 (stereo not drawn)	/	/	-9	97

Rows are unselected (roughly 0.85% active in at least one column).
